Cruzain inh noDet: blocks cruzain activity in detergent-free assay. P25779. purified cruzain, Z-FR-AMC fluorescence, no detergent. Potency, µM, for inactives: max response, negative = inhibition, hits mostly inhibitors. hit rate 2.3% among 200,000;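 also: plate controls were enzyme without inhibitor for no effect and buffer without enzyme for full effect; nearly all actives have a fitted effect of over 40% in size; top concentration of the series not given in the record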
Target sequence (P25779 123-467 limits assumed): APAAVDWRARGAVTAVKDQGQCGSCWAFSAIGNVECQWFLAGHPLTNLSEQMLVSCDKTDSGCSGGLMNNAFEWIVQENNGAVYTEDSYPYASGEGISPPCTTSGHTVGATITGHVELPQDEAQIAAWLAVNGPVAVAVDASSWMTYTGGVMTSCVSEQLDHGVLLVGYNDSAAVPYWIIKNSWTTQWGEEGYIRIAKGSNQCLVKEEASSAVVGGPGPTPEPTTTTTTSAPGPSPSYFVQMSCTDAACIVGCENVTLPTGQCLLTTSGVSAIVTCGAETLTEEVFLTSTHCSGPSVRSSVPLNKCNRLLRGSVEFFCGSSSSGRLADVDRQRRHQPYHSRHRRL
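Purified cruzain at 1.5 nM, pre-incubated 15 min with compound at room temperature in 100 mM sodium acetate pH 5.5, 5 mM DTT, 0.00005% Triton X-100. Reaction started with 2 uM Z-FR-AMC; AMC fluorescence increase over 60 s gives rate.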
Cruzain inh Det: inhibitors of Trypanosoma cruzi cruzain with detergent | AID 1478 | Potency, µM, without a hit: max response, negative = inhibition, hits mostly inhibitors | P25779 | purified cruzain, Z-FR-AMC fluorescence, 0.01% Triton | hit rate 0.43% among 200,000;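 also: plate controls were neutral wells for no effect and buffer without enzyme for full effect; nearly all actives have a fitted effect of over 40% in size; top concentration of the series not given in the record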
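Purified cruzain (1.5 nM final) was preincubated with compounds for 15 min at room temperature in 100 mM sodium acetate pH 5.5, 5 mM DTT, 0.01% Triton X-100. Reaction started with 2 uM Z-FR-AMC; AMC fluorescence change over 60 s gave activity.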
StopGo reporter: lowers the luciferase signal of an FMDV 2A StopGo reporter; Potency, µM (top dose mostly 57.9 µM), without a hit: at the top dose signal change, negative = less light; human cells with a luciferase reporter of 2A StopGo recoding; control for the full effect not named in the record; hit rate 1.2% among 410,000; active = well fitted falling curve with a large enough effect; inconclusive = small, poorly fitted or top-dose-only effect; inactive = no such curve, though single readings can be large or run the other way; tested in HEK293T cells; also: nearly all actives have a fitted effect of over 45% in size; luciferase light after 4 h
Active calls of the source: *; ? = inconclusive; & = joins results of further samples; [ ] = remark or other dose. Unless noted, calls follow the shape of the dose curve; as a rule, active = well fitted curve in the direction sought with a large enough effect; inconclusive = small, poorly fitted or top-dose-only effect, or another doubt; inactive = no such curve, though single readings can be large; an effect the other way counts as inactive or inconclusive. Unless noted, % is scaled to controls: 0 for no effect and ±100 for the full control effect; potency is read from the fitted curve at half-maximal effect. A portion of the library (hit frequency here may not be typical).

SMILES	Cruzain inh noDet	Cruzain inh Det	StopGo reporter
c1ccc(Nc2nc(-c3ccoc3)nc3ccccc23)cc1	?	-0.3%	-14.2%
O=S(=O)(c1ccccc1)N1CCC[C@@]2(CCN(Cc3cc(C(F)(F)F)cc(C(F)(F)F)c3)C2)C1	-2.5%	-4.0%	-8.9%
Cc1noc(C)c1-c1nc(N2CCNCC2)c2ccccc2n1	-13.1%	-2.3%	5.3%
COc1c(OC)c2occc2c2oc(=O)ccc12	-9.7%	-5.5%	-16.3%
CC(=O)OC1CC2C(C)(C)C(O)CCC2(C)C2CC[C@]3(C)C(=CC(=O)OC3c3ccoc3)C12C (stereo partly drawn)	?	-1.9%	-19.8%
O=C(c1ccncc1)N1CCC2(CCN(Cc3cc(C(F)(F)F)cc(C(F)(F)F)c3)CC2)CC1	-6.9%	2.2%	-8.5%
C=CCCCCCCCCCCCC(O)CC(O)COC(C)=O (stereo not drawn) (tested in a mixture with another compound)	?	-6.0%	-12.3%
COc1ccc2[nH]cc(CCNc3cc(-c4ccc(C(=O)N(C)C)cc4)ncn3)c2c1	-9.7%	-26.9%	11.8%
Cc1ccccc1-c1nc(N(C)Cc2ccco2)c2ccccc2n1	-1.9%	-4.2%	-21.3%
COc1ccc(-c2nc3cnc(N(C)C)nc3n(C)c2=O)cc1	-6.6%	0.2%	36.1%[activator]
c1ccc(-c2ccc(N3CC4(CCNCC4)C3)cc2)cc1	?	0.9%	-25.2%
COc1ccccc1CN1CC[C@@]2(CCCN(C(=O)c3ccco3)C2)C1	-0.1%	3.1%	1.9%
COc1ccccc1-c1cc(NCc2cccs2)ncn1	2.4%	-11.4%	9.0%
COc1ccc(C(=O)N2CCC3(CCCN(Cc4cc(C(F)(F)F)cc(C(F)(F)F)c4)C3)CC2)cc1	19.6%	-7.8%	-6.5%
N#CCCn1c(=O)c(-c2ccc(Cl)cc2)nc2cnc(Oc3cccc(Cl)c3)nc21	11.6%	3.4%	-12.8%
O=C(c1cccc(F)c1)N1CCC2(CCCN(Cc3nccs3)C2)CC1	4.3%	0.4%	-11.0%
CS(=O)(=O)Nc1cccc(-c2nccc(NCc3cccs3)n2)c1	-3.1%	-19.2%	9.8%
CC1CC[C@@]23CCC4(C)[C@@]5(C)CCC6C(C)(C)C(=O)CC[C@@]6(C)C5C=C[C@@]4(OC2=O)C3C1C (stereo partly drawn)	4.1%	8.2%	-2.5%
COc1ccc(NC(=O)N2CC3(CCN(C(=O)c4ccco4)CC3)C2)cc1	-11.8%	3.7%	-2.6%
O=c1cc(N2CCNCC2)oc2c(-c3ccccc3)cccc12	-5.9%	0.7%	-1.5%
Cc1ccccc1-c1cc(N2CCN(C)CC2)ncn1	6.1%	3.7%	-9.4%
CCNc1ncc2nc(-c3ccccc3)c(=O)n(C[C@H]3CCCO3)c2n1	?	-22.1%	-15.3%
CC(=O)[C@]1(O)CCC2C3CC(C)C4=CC(=O)C=CC4(C)[C@@]3(F)C(O)C[C@]21C (stereo partly drawn)	-1.4%	4.6%	1.7%
CN(C)C(=O)c1ccc(-c2nc(Nc3ccccc3)c3ccccc3n2)cc1	-4.2%	4.3%	24.9%
CC(=O)OC1CC2C(C)(C)C(O)CC[C@@]2(C)C2CC[C@@]3(C)C(c4ccoc4)OC(=O)C4OC43[C@]12C (stereo partly drawn)	?	-1.7%	?
COc1ccccc1CNc1ncncc1-c1ccccc1C(F)(F)F	-4.4%	-1.2%	0.2%
COc1ccccc1CCn1c(=O)c(-c2ccc(F)cc2)nc2cncnc21	9.9%	2.4%	-5.0%
CN(C)C(=O)c1ccc(-c2ccc3ncnc(NCc4ccccc4)c3c2)cc1	8.8%	-5.5%	18.4%
CCOC(=O)C1=C(C)NC(=S)NC1c1cccc(O)c1 (stereo not drawn)	-2.5%	2.5%	-12.0%
C[C@H]1O[C@H](O[C@H]2[C@H](O)[C@@H](O)[C@@H](O)[C@H](O)[C@@H]2O)[C@@H](N)C[C@@H]1NC(=N)C(=O)O	11.0%	4.0%	-9.5%
CC(=O)N1CCC2(CCCN(Cc3ccccc3)C2)CC1	7.1%	-1.6%	-14.7%
COCCn1c(=O)c(CCc2ccccc2)nc2cnc(Nc3cccc(OC)c3)nc21	1.0%	2.6%	-5.7%
CCC12C=CCN3CCC4(c5ccc(OC)cc5N(C)C4[C@@](O)(C(=O)OC)C1OC(C)=O)C32 (stereo partly drawn)	-5.7%	-4.6%	-2.1%
CCCCCCCC/C=C\C/C=C\C/C=C\CCCC(=O)NCCO	7.4%	4.2%	-17.4%[6.7 µM]
CCCCCCCCCCCCCCCCOCC(CO)OC(C)=O (stereo not drawn)	-0.9%	4.3%	-8.0%[6.7 µM]
COc1ccc2c3c1O[C@H]1C[C@H](O)C=C[C@@]31CCN(C)C2	1.8%	-0.5%	-21.8%
Cc1cccc(CNc2cc(-c3ccc(N(C)C)cc3)ncn2)c1	0.2%	-3.1%	2.5%
Cc1c[nH]c(=O)n(CCCN2CCN(c3ccccc3OCC(F)(F)F)CC2)c1=O	14.4%	1.0%	-12.8%
COCC(=O)N1CCC2(CC1)CCN(C(=O)Nc1cccc(F)c1)CC2	2.0%	1.1%	-6.1%
CCCCCCCCCCCCCCCC(=O)N[C@H](CN1CCOCC1)[C@H](O)c1ccccc1	2.3%	-2.3%	-20.3%[6.7 µM]
C=C[C@](C)(O)CCC=C(C)C	3.6%	1.0%	6.8%
O=c1c(-c2ccc(F)cc2)nc2cnc(N3CCOCC3)nc2n1Cc1cccs1	-2.7%	0.9%	-1.1%
CC(=O)N1CCC2(CC1)CCN(c1ccccc1)CC2	-1.1%	4.5%	-19.5%
COc1ccccc1CCn1c(=O)c(-c2cn(C)c3ccccc23)nc2cncnc21	2.2%	2.0%	5.0%
COc1ncc2nc(-c3cn(C)c4ccccc34)c(=O)n(-c3ccccc3)c2n1	-5.6%	-0.8%	-0.3%
N#Cc1ccc(CN2CC3(CCN(C(=O)c4cccc(F)c4)CC3)C2)cc1	6.2%	-0.6%	-10.0%
CC(C)NC(=O)N1CCC2(CC1)CCN(C(=O)c1csnn1)CC2	-0.3%	-0.9%	-4.7%
COC(=O)CC1C(C)(C)C(OC(C)=O)C2CC3C4CC(=O)OC(c5ccoc5)[C@]4(C)CCC3[C@@]1(C)C2=O (stereo partly drawn)	?	1.0%	-10.7%
COc1ccccc1CNc1cc(-c2ccccc2CN(C)C)ncn1	0.3%	-1.5%	-23.5%
Cc1noc(C)c1-c1cc(Nc2ccccc2)ncn1	1.6%	1.2%	-8.2%

(list continues)
SMILES	Cruzain inh noDet	Cruzain inh Det	StopGo reporter
O=C(O)C1CCN(c2ncnc3ccc(-c4ccccc4C(F)(F)F)cc23)CC1	-0.2%	6.0%	-15.3%
COc1ccc(-n2c(=O)c(-c3cn(C)c4ccccc34)nc3cnc(OC)nc32)cc1	0.4%	6.1%	-7.0%
COc1cc(/C=C(\C#N)C(N)=O)cc(CSc2nc3ccccc3s2)c1O	-1.1%	-7.6%	-9.0%&20.0%&5.1%
S=C(NCCCc1cnc[nH]1)NCCCN(Cc1ccc(Cl)c(Cl)c1)c1ccc(Br)cn1	-25.1%	-20.6%	-16.1%&-24.1%
CC(=O)NC1C(O)C[C@@](O)(C(=O)O)OC1[C@@H](O)C(O)CO (stereo partly drawn)	-7.3%	1.8%	2.3%
COCCn1c(=O)c(-c2cccs2)nc2cnc(N3CCOCC3)nc21	3.2%	2.2%	-23.3%
c1cncc(-c2nccc(NCc3cccs3)n2)c1	-8.2%	4.7%	13.2%
CN1CCN(c2ccnc(-c3ccc(N(C)C)cc3)n2)CC1	-16.2%	-8.9%	-24.9%
COc1ccc(CNc2cc(-c3cccc(C#N)c3)ncn2)c(OC)c1	-6.8%	2.6%	1.0%
CCOC(=O)C(=O)C1(C(=O)OCC)Oc2cc(OC)cc(OC)c2C(=O)C1c1ccccc1 (stereo not drawn)	-16.6%	-6.1%	39.7%[activator]
Clc1ccccc1-c1cc(NCCN2CCOCC2)ncn1	-3.1%	0.7%	18.5%
Cc1cnc(CNc2ccnc(-c3ccccc3C)n2)cn1	1.8%	-2.3%	5.8%
CCCCC1(C2CCCC2)Cc2cc(OCCCC(=O)O)c(Cl)c(Cl)c2C1=O (stereo not drawn)	?	?	-17.0%
CC(=O)NCCNc1ncnc2ccc(-c3cccc(NS(C)(=O)=O)c3)cc12	-13.9%	-8.4%	-18.3%
Cc1ccccc1-c1cc(NCc2cccnc2)ncn1	0.6%	4.3%	8.7%
COc1ncc2nc(-c3ccc(F)cc3)c(=O)n(C[C@H]3CCCO3)c2n1	1.4%	-4.7%	-15.0%
NCC1O[C@@H](OC2C(N)C[C@H](N)[C@@H](O[C@H]3OC(CO)C(O)C(N)C3O)C2O)C(O)C(O)C1O (stereo partly drawn)	2.4%	0.1%	1.4%
CN1CCN(c2ncc3nc(CCc4ccccc4)c(=O)n(CCc4ccccc4)c3n2)CC1	1.4%	0.1%	-8.9%
CC(C)NC(=O)N1CCC2(CC1)CCN(C(=O)c1cccc(F)c1)CC2	-7.1%	1.9%	-5.5%
COc1cccc(Cn2c(=O)cnc3cnc(OC)nc32)c1	-3.0%	-3.4%	-1.3%
N[C@](CC1c2ccccc2Oc2ccccc21)(C(=O)O)[C@@H]1C[C@@H]1C(=O)O	-2.9%	-6.0%	6.2%
CC(=O)N1CCC2(CCCN(C(=O)Nc3cccc(C#N)c3)C2)CC1	3.4%	2.2%	-6.3%
N[C@H](CCC(=O)NCC(=O)O)C(=O)O	6.0%	0.5%	1.1%
CN1CCN(c2ccnc(-c3cccnc3)n2)CC1	11.4%	2.0%	-11.6%
COc1ccc(Oc2ncc3nc(C)c(=O)n(-c4ccccc4)c3n2)cc1	-8.9%	-0.9%	-15.8%
Cc1cnc(CNc2ncnc3ccc(-c4ccccc4C(F)(F)F)cc23)cn1	?	-3.1%	?
CC1C(=O)OC2CCN3CC=C(COC(=O)[C@](C)(O)[C@]1(C)O)C23 (stereo partly drawn)	0.7%	0.5%	-6.7%
CCC(/C=C/C(C)C1CCC2C3CC=C4CC(O)CC[C@@]4(C)C3CC[C@@]12C)C(C)C (stereo partly drawn)	-7.2%	2.0%	-9.2%
CS(=O)(=O)c1ccc(Cn2c3c(c4cc(F)cc(F)c42)CCC[C@H]3CC(=O)O)cc1	?	-29.9%	-22.4%
O=c1c(CCc2ccccc2)nc2cncnc2n1-c1ccccc1	-1.8%	-8.6%	39.3%[activator]
CN(C)Cc1ccccc1-c1cc(NCc2ccccc2)ncn1	20.0%	0.4%	-8.6%
N#Cc1ccc(CN2CC[C@@]3(CCCN(C(=O)c4cc(C(F)(F)F)cc(C(F)(F)F)c4)C3)C2)cc1	7.4%	1.6%	-15.4%
O=C(O)C=Cc1ccc(Cn2ccnc2)cc1	2.5%	3.0%	-10.0%
COc1cc2c(cc1OC)C1C(=O)c3c(O)cc4c(c3OC1CO2)C=CC(C)(C)O4 (stereo not drawn)	?	-10.1%	?
Cc1noc(C)c1C(=O)N1CCC2(CCCN(C(c3ccccc3)c3ccccc3)C2)CC1	21.5%	-2.0%	-24.2%
C=CC(C1=CC(=O)C=CC1=O)c1ccc(O)cc1 (stereo not drawn)	-6.8%	-2.9%	-1.7%
COc1ccc(C(=O)N2CCC3(CC2)CN(c2ccc(-c4ccccc4)cc2)C3)cc1	-2.2%	2.5%	-27.6%
O=S(=O)(c1ccccc1)N1CCC[C@@]2(CCN(C(c3ccccc3)c3ccccc3)C2)C1	13.8%	-3.3%	-11.8%
CC1=CC2C(=O)c3cccc(O)c3C(=O)C2C(O)=C1 (stereo not drawn)	-10.5%	-1.9%	3.4%
Cn1c(=O)c(-c2cccs2)nc2cnc(OCc3ccccc3)nc21	3.7%	1.6%	-12.2%
CN1CCN(c2ncc3nc(-c4ccccc4)c(=O)n(C4CC4)c3n2)CC1	25.1µM*	31.6µM*	-7.3%
COc1ccccc1-c1cc(-n2ccnc2)ncn1	-2.8%	-6.2%	-10.5%
CC1=CC(=O)OC1Cc1ccc2ccccc2n1 (stereo not drawn)	-6.5%	4.0%	23.6%
O=C1NC(=O)c2cc(Nc3ccc(F)cc3)c(Nc3ccc(F)cc3)cc21	-8.7%	-0.6%	-9.0%
